# NS1 function inh = inhibitors of influenza NS1 protein function. S. cerevisiae slowed by influenza A NS1, growth recovery by OD600. Potency, µM (highest dose often 46.1 µM), for inactives: top-dose activity, positive = more growth. 270,000 compounds, 0.4% hits; active means well fitted rising curve with a large enough effect; inconclusive means small, poorly fitted or top-dose-only effect; inactive means no such curve, though single readings can be large or run the other way; note: nearly all actives have a fitted effect of over 50% in size
#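 S. cerevisiae expressing influenza A NS1, grown in glucose, washed, then diluted 1:100 into pH 6.0 -URA galactose medium with 23 nl compound. Growth recovery read as OD600; NS1-free strain serves as control.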
# StopGo reporter = FMDV 2A StopGo reporter, luciferase signal. human cells with a luciferase reporter of 2A StopGo recoding; control for the full effect not named in the record. Potency, µM (top dose mostly 57.9 µM), without a hit: at the top dose signal change, negative = less light. 410,000 compounds, 1.2% hits. AID 1159524; active = well fitted falling curve with a large enough effect; inconclusive = small, poorly fitted or top-dose-only effect; inactive = no such curve, though single readings can be large or run the other way; tested in HEK293T cells; note: % is set by controls: 0 for no effect and ±100 for the full control effect; nearly all actives have a fitted effect of over 45% in size; luciferase light after 4 h
# MARV entry inh = blocks Marburg virus binding to or entry into cells. Potency, µM (doses to about 37.8 µM), inactives show top-dose activity change, negative = inhibition, hits mostly inhibitors. Marburg virus pseudotyped entry inhibition, cell reporter; control for the full effect not named in the record; about a third of the inactives were read at about 46 µM. AID 540276. 300,000 compounds, 1.8% hits; active = well fitted inhibition curve with a large enough effect; inconclusive = small, poorly fitted or top-dose-only effect, or effect the other way; inactive = flat fitted curve, though single readings scatter; tested in HEK293 cells; about a fifth of its hits are not listed in these tables; note: % is set by controls: 0 for no effect and ±100 for the full control effect; luciferase read-out
# RE007 growth inh = less growth of the S. pombe RE007 Vpr strain; Potency, µM (series often up to 92.2 µM), inactives show at the top dose activity change, negative = less growth; 360,000 compounds, 0.21% hits; AID 651644; S. pombe RE007 Vpr strain, BacTiter-Glo ATP luminescence, 24 h; control for the full effect not named in the record; active = well fitted falling curve with a large enough effect; inconclusive = small, poorly fitted or top-dose-only effect; inactive = no such curve, though single readings can be large or run the other way;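 note: % is set by controls: 0 for no effect and ±100 for the full control effect; nearly all actives have a fitted effect of over 50% in size; the assay follows cell death caused by Vpr and the record does not say whether a fall means rescue or toxicity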
#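 Fission yeast RE007 carrying one integrated HIV-1 vpr copy, seeded at OD 0.01 in PMG+AL medium with 23 nL pinned compound. Grown 24 h at 30 degrees; viability read by BacTiter-Glo luminescence after 5 min.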
# Lassa entry inh = Lassa virus entry inhibition; Lassa virus pseudotype entry inhibition, cell reporter; control for the full effect not named in the record; Potency, µM (titrated, usually from 37.9 µM), for the others: at the highest dose activity change, negative = inhibition, hits mostly inhibitors; 300,000 compounds, 1.2% hits; active means well fitted inhibition curve with a large enough effect; inconclusive means small, poorly fitted or top-dose-only effect, or effect the other way; inactive means flat fitted curve, though single readings scatter; tested in HEK293 cells; note: % is set by controls: 0 for no effect and ±100 for the full control effect; nearly all actives have a fitted effect of over 50% in size; luciferase read-out
# Cruzain noTriton = blocks cruzain activity in detergent-free assay | P25779 | purified cruzain, Z-FR-AMC fluorescence, no detergent | Potency, µM, for the others: max response, negative = inhibition, hits mostly inhibitors | 200,000 compounds, 2.3% hits | AID 1476;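 note: plate controls were enzyme without inhibitor for no effect and buffer without enzyme for full effect; nearly all actives have a fitted effect of over 40% in size; top concentration of the series not given in the record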
# Target sequence (P25779 123-467 limits assumed): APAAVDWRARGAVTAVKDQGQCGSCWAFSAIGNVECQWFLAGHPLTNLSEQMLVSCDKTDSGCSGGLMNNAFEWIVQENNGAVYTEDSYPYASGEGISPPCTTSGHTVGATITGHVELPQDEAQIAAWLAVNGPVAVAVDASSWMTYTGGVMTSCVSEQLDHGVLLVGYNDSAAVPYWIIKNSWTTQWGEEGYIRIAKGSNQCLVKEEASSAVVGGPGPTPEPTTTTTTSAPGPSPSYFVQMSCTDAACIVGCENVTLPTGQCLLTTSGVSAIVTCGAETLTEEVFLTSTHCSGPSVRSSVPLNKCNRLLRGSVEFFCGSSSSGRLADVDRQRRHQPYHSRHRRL
#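 Purified cruzain at 1.5 nM, pre-incubated 15 min with compound at room temperature in 100 mM sodium acetate pH 5.5, 5 mM DTT, 0.00005% Triton X-100. Reaction started with 2 uM Z-FR-AMC; AMC fluorescence increase over 60 s gives rate.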
# Cruzain inh Det = blocks cruzain activity in presence of Triton detergent; P25779; purified cruzain, Z-FR-AMC fluorescence, 0.01% Triton; Potency, µM, inactives show max response, negative = inhibition, hits mostly inhibitors; 200,000 compounds, 0.43% hits; AID 1478;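 note: plate controls were neutral wells for no effect and buffer without enzyme for full effect; nearly all actives have a fitted effect of over 40% in size; top concentration of the series not given in the record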
#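 Read-out: AMC fluorescence (360 nm excitation, 450 nm emission), four reads over 2 min, first-to-third difference used. Conditions: cruzain 1.5 nM, Z-FR-AMC 2 uM, pH 5.5 acetate, 5 mM DTT, 0.01% Triton X-100.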
# SARS PLP yeast = SARS-CoV PLP inhibition in yeast | Potency, µM (highest dose often 32.9 µM), for inactives: at the highest dose activity, positive = growth rescue | S. cerevisiae expressing SARS-CoV PLpro, growth rescue; control for the full effect not named in the record | 330,000 compounds, 0.19% hits | AID 485353; active means well fitted rising curve with a large enough effect; inconclusive means small, poorly fitted or top-dose-only effect; inactive means no such curve, though single readings can be large or run the other way; note: 0% is about no effect; nearly all actives have a fitted effect of over 55% in size; growth read by luminescence after 48 h
# An asterisk follows results filed as active; ? = inconclusive; . = no result given; & = joins results of further samples; [ ] = remark or other dose. Unless noted, calls come from the whole dose curve; as a rule, active = well fitted curve in the direction sought with a large enough effect; inconclusive = small, poorly fitted or top-dose-only effect, or another doubt; inactive = no such curve, though single readings can be large; an effect the other way counts as inactive or inconclusive. Potency is the fitted concentration of half-maximal effect.
structure	Cruzain noTriton	Cruzain inh Det	SARS PLP yeast	RE007 growth inh	MARV entry inh	Lassa entry inh	StopGo reporter	NS1 function inh
COc1cc(NC(=O)C2CCCN(c3ncccn3)C2)cc(OC)c1 (stereo not given)	29%	-3.5%	4%	9%	-7%	2%	3%	-3%
CCC(C)NC(=O)CS(=O)Cc1nc(-c2cccc(OC)c2)oc1C (stereo not given)	9%	2.8%	2%	2%	.	.	-21%	9%
CN(C)CCn1cnc2c1c(=O)n(C)c(=O)n2C	.	.	-1%	1%	-8%	2%	-9%	7%
CCc1ccccc1NC(=O)Nc1cc(C(=O)NCc2ccc(C)cc2)ccc1N1CCCC1	7%	1.4%	.	.	.	-5%[46.1 µM]	5%	.
Cc1ccccc1C(=O)NNc1ncnc2c1cnn2-c1cccc(Cl)c1	-12%	1.5%	.	.	.	?	-15%	.
COc1ccccc1Cn1cc(C(=O)c2ccc(C)cc2)c(=O)c2cc(C)ccc21	?	3.9%	.	.	14%[46.1 µM]	.	?	.
CC(=O)c1c(C)[nH]c(C(=O)NCc2ccccc2Cl)c1C	-13%	-1.2%	1%	1%	-7%	5%	16%	5%
COC(=O)c1c(-c2c(Cl)cccc2Cl)noc1NC(=O)NN1CCCCC1	.	.	0%	13%	?	?	-14%	4%
Cc1c(NC(=O)Cn2nc(C(F)(F)F)c3c2CCCC3)c(=O)n(-c2ccccc2)n1C	-4%	2.3%	0%	9%	-10%	16%	-18%	-3%
O=C(NCCc1ccc(F)cc1)Nc1ccccc1	.	.	0%	10%	.	.	59%[activator]	-36%
O=C(NC1CC1)c1cc2c(s1)-c1ccccc1OC2	?	?	-20%	-11%	.	.	-5%	-161%
O=C(NCc1ccc2c(c1)OCO2)c1cc2ccccc2o1	2%	2.0%	-1%	10%	7%	12%	24%	-7%
C#CCOCCOCCOCCNc1nc(N2CCN(C(=O)Cn3cc(CCCN=C(N)N)nn3)CC2)nc(N2CCN(C(=O)[C@H]([C@@H](C)CC)n3cc(CCCN=C(N)N)nn3)CC2)n1	20µM*	25µM*	6%	.	3%	6%	.	-1%
CCCC[n+]1ccn(-c2nc3ccccc3nc2[N-]S(=O)(=O)c2ccc(Cl)cc2)c1	.	.	-3%	20%	0%	-3%	33%[activator]	8%
COc1ccc(-n2nnc(-c3nc(-c4ccccc4C)no3)c2N)cc1Cl	-2%	0.1%	.	.	.	?	-12%	.
Cc1ccc(N(C(=O)c2csnn2)C(C(=O)NC2CCCCC2)c2ccncc2)cc1 (stereo not given)	.	.	-1%	-3%	?	?	-1%	-5%
COc1ccc(CCN(Cc2nc3ccccc3c(=O)[nH]2)C(=O)C2CC2)cc1	.	.	0%	3%	?	?	-26%	1%
Cc1cc(=O)oc2cc(OCC(=O)Nc3ccc(F)cc3F)ccc12	.	.	-2%	-18%	3%[46.1 µM]	-4%	8%	.
O=C(C(=O)N1CCOCC1)c1cn(CC(=O)N2CCc3ccccc3C2)c2ccccc12	.	.	0%	10%	6%[46.1 µM]	?	4%	.
O=C(CCCCn1cnc2c(=S)nc[nH]c21)Nc1ccc(C(=O)O)c(O)c1	.	.	.	1%	-12%	7%	-11%	.

# (next part)
structure	Cruzain noTriton	Cruzain inh Det	SARS PLP yeast	RE007 growth inh	MARV entry inh	Lassa entry inh	StopGo reporter	NS1 function inh
Cc1ccc(C(=O)N2CCC3(CC2)NCCc2[nH]cnc23)cc1C	.	.	-1%	3%	.	.	10%	-7%
O=C(NCc1ccccc1)c1ccc[n+]([O-])c1	.	.	1%	-4%	.	.	2%	9%
Cc1cccc(C)c1-n1ncc(C(=O)Nc2ccc3c(c2)OCO3)c1C1CCN(C(=O)OC(C)(C)C)CC1	-17%	-9.9%	.	.	.	-19%[46.1 µM]	5%	.
CCC(C)S(=O)(=O)c1oc(-c2cccs2)nc1S(=O)(=O)c1ccccc1 (stereo not given)	-23%	-8.1%	.	.	?	?	28µM*	.
Cc1ccc(NS(=O)(=O)c2c(C(=O)N3CCCC3)c(C)n(C)c2C)cc1	.	.	-2%	-3%	12%[46.1 µM]	?	1%	-1%
Cc1ccc(S(=O)(=O)NCC(c2ccc(N(C)C)cc2)N2CCCC2)cc1 (stereo not given)	-3%	0.4%	.	.	.	0%[46.1 µM]	-1%	.
O=C(Nc1nccs1)C1C2CC3OC(=O)C1C3C2 (stereo not given)	4%	-0.9%	1%	-2%	18%[46.1 µM]	-10%	-13%	4%
Oc1[nH]c2ccc(Br)cc2c1N=Nc1ccc(C(F)(F)F)cn1	17%	-6.7%	-7%	-5%	-20%[46.1 µM]	-7%[46.1 µM]	0%	-13%
O=C(NNC(=O)c1nn(-c2ccc(F)cc2)ccc1=O)c1ccc(C(F)(F)F)cc1	.	.	0%	-7%	5%	?	0%	-1%
CCN(CC)S(=O)(=O)c1ccc(C)c(C(=O)Oc2cccc(-c3cnc4ccccc4n3)c2)c1	-7%	-1.5%	-4%	-3%	9%	?	-3%	-8%
COc1ccc(NCc2nc3ccccc3n2C)cc1	.	.	-3%	-24%	.	.	52%[activator]	-9%
Cc1ccc(C)c(N2CCN(C(=O)c3ccc(-c4nc(COc5ccccc5)c(C)o4)cc3)CC2)c1	4%	6.2%	.	.	.	-16%[46.1 µM]	0%	.
Cc1cccc(-c2nnc(NC(=O)c3ccc(Cl)cc3)o2)c1	-5%	6.1%	-5%	?	-6%	-20%	3%	-87%
COc1cc(CCC(=O)OCC(=O)Nc2ccccc2F)cc(OC)c1OC	.	.	3%	-5%	-2%[46.1 µM]	-1%	14%	-4%
Cc1ccc(-n2nc3c(c2NC(=O)c2ccco2)CS(=O)C3)c(C)c1 (stereo not given)	.	.	-2%	1%	-1%	17%	-15%	.
O=C(/C=C/c1ccc(Cl)cc1Cl)Nc1cccc(S(=O)(=O)NC2=NCCC2)c1	.	.	-2%	19%	13µM*	15µM*	-36%	.
CCN(Cc1cccs1)C(=O)CN1CCN(S(=O)(=O)c2ccc3c(c2)OCCCO3)CC1	.	.	4%	-5%	-19%	?	?	.
COc1cccc(C2=NOC(C(=O)NCCN3CCOCC3)C2)c1 (stereo not given)	-4%	0.7%	-2%	-2%	5%	22%	-15%	-10%
Cc1ccc(CN2C(=O)NC(Cc3c[nH]c4ccccc34)C2=O)cc1 (stereo not given)	13%	-7.1%	-15%	-1%	-2%	?	-3%	28%
COc1cccc(C(=O)Nc2ccccc2C(=O)OCc2cc(=O)n3c4c(sc3n2)CCCC4)c1	2%	-0.4%	.	.	.	3%[46.1 µM]	-12%	.

# Profiles as entered above:
# `COc1cccc(C2=NOC(C(=O)NCCN3CCOCC3)C2)c1` (stereo not given) in the list: Cruzain noTriton: -4%; Cruzain inh Det: 0.7%; SARS PLP yeast: -2%; RE007 growth inh: -2%; MARV entry inh: 5%; Lassa entry inh: 22%; StopGo reporter: -15%; NS1 function inh: -10%
# `CCN(CC)S(=O)(=O)c1ccc(C)c(C(=O)Oc2cccc(-c3cnc4ccccc4n3)c2)c1` in the list: Cruzain noTriton: -7%; Cruzain inh Det: -1.5%; SARS PLP yeast: -4%; RE007 growth inh: -3%; MARV entry inh: 9%; Lassa entry inh: ?; StopGo reporter: -3%; NS1 function inh: -8%

# Other results:
structure	Cruzain noTriton	Cruzain inh Det	SARS PLP yeast	RE007 growth inh	MARV entry inh	Lassa entry inh	StopGo reporter	NS1 function inh
CC(C)(C)Nc1nc(NCc2cccnc2)nc(N2CCOCC2)n1	9%	-3.5%	10%	9%	14%	2%	-19%	1%
O=C(OCC(=O)c1ccco1)c1ccc2ncsc2c1	7%	-4.5%	-4%	18%	-1%	14%	27%	-11%
Cc1cc(C)n2cc(-c3ccc(Cl)cc3)c(C(=O)O)c2n1	.	.	-1%	0%	20%	-1%	32%[activator]	-6%
Cc1oc(-c2ccccc2Cl)nc1CS(=O)(=O)CC(=O)N1CCOCC1	.	.	2%	-2%	.	.	-18%	-11%
O=C(N=C1c2ccccc2CN1c1ccc(F)c(Cl)c1)c1cccnc1Cl	?	-6.0%	-16%	.	-18%	7%	.	-4%
COc1cccc(C(=O)NCC(=O)N2CCC3(CC2)NCCc2[nH]cnc23)c1OC	.	.	0%	1%	15%[46.1 µM]	?	-18%	5%
CCOCCCNC(=O)C(c1ccc(Cl)cc1)N(Cc1ccc2c(c1)OCO2)C(=O)c1ccc(NC(C)=O)cc1 (stereo not given)	?	-3.9%	.	.	?	?	-17%	.
CCC(=O)N1CCc2cc(Br)cc(S(=O)(=O)Nc3ccccc3C(=O)OC)c21	-4%	0.4%	.	.	?	1%[46.1 µM]	32%[activator]	.
COc1cccc(CNC(=O)Cn2cccc2C(=O)c2ccccc2C)c1	.	.	-3%	5%	6%[46.1 µM]	14%[46.1 µM]	10%	-11%
COc1ccc(N(CC(=O)NCCC2=CCCCC2)S(=O)(=O)c2ccccc2)cc1	.	.	-2%	-2%	.	.	0%	-6%
O=c1c(C(c2c(O)nc3n(c2=O)CCS3)c2cccc3ccccc23)c(O)nc2n1CCS2	-2%	-8.8%	1%	-30%	-1%[46.1 µM]	0%	-29%	17%
O=C(Cn1c[n+](CC(=O)c2ccc([N+](=O)[O-])cc2)cn1)c1ccc([N+](=O)[O-])cc1	.	.	-1%&-2%	-17%&4%	.	.	5%&2%	0%&-6%
CCOC(=O)C1CCN(C(=O)c2ccc(N(C)S(C)(=O)=O)cc2)CC1	0%	4.2%	7%	3%	4%	-13%	.	6%
CS(=O)(=O)c1cccc(-c2nnc(NC(=O)c3ccc4ncsc4c3)o2)c1	.	.	.	-12%	17%	2%	-27%	.
Cc1[nH]c2ccc(Cl)cc2c(=O)c1CN1CCCC1	.	.	-1%	12%	?	11%[46.1 µM]	-7%	1%
